BJeLR viab HTS – compounds reducing viability of BJeLR cells; actives 0.64% (n = 30,000); viability loss activity score, % (test concentration not listed); BJeLR fibroblasts viability, CellTiterGlo ATP luminescence, 48 h; HRASV12, hTERT and SV40 LT/ST transformed; in the data active means viability loss activity score above about 50%; about a fifth of its hits are not listed in these tables;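 further: higher score means fewer live cells and less ATP luminescence; stock transfer was 50 or 100 nL into about 30 µL; 0% = vehicle wells and 100% = a reference killing control; one replicate is shown; the record names a cut of 85%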
A1 inhib – blocks A1 activity. AID 2241. actives 0.51% (n = 21,000). MEF A1-2A-BIM cells, caspase-Glo luminescence, 3 h; percent of clofoctol signal, DMSO as zero. caspase activation, % (concentration not given with the values);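 active means most replicate scores above 10, or exactly half above 10 with mean activity above 10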;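 further: effector caspase 3 and 7 activity cleaving a DEVD luciferin substrate; 50 nL library stock added to about 30 µL; numbers are from one replicate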
* = called active by the depositor; nt = no result given. Not all compounds are listed; the hit share may differ from the screen's.

Every second line gives: BJeLR viab HTS, A1 inhib
> COc1ccc(NC(=O)N(C)C[C@@H]2Oc3ccc(NC(=O)c4ccncc4)cc3C(=O)N([C@@H](C)CO)C[C@H]2C)cc1
    1.6, -0.3
> CCCCN(CC)S(=O)(=O)c1ccc2[nH]c(=O)cc(C(=O)NCCc3ccc(Cl)cc3)c2c1
    -1.6, 0.9
> Cc1cc(=O)nc2c3ccccc3n(C(C)C(=O)N(C)Cc3ccccc3)n12 (stereo unspecified)
    -4.1, -0.3
> C[C@@H]1CN([C@@H](C)CO)C(=O)c2cccc(NC(=O)c3nc4ccccc4s3)c2O[C@H]1CN(C)C(=O)Nc1ccc(F)cc1
    -4.1, nt
> COC1CC(OC2CCC3(C)C(CCC4(O)C3CC(OC(=O)c3ccccc3)C3(C)C(O)(C(C)=O)CCC43O)C2)OC(C)C1OC1CC(OC)C(OC2OC(C)C(OC3OC(CO)C(O)C(O)C3O)C(OC)C2O)C(C)O1 (stereo unspecified)
    -2.1, 0.4
> COc1ccccc1/C=C1\SC(=O)N(CCC(=O)N2c3ccccc3Sc3ccccc32)C1=O
    -2.7, 0.9
> COC(=O)c1sc2nc(C)cc(C(F)(F)F)c2c1N
    -6.9, 0.8
> COc1cc(O[C@@H]2O[C@H](CO)[C@@H](O)[C@H](O)[C@H]2O)c2c(=O)cc(-c3ccccc3)oc2c1OC
    2.1, -0.4
> Cc1ccc(S(=O)(=O)N(C)C[C@H]2Oc3c(NC(=O)c4nc5ccccc5s4)cccc3C(=O)N([C@H](C)CO)C[C@@H]2C)cc1
    5.5, nt
> C[C@H](CO)N1C[C@H](C)[C@H](CN(C)S(=O)(=O)c2ccc(F)cc2)Oc2c(NC(=O)C3CC3)cccc2C1=O
    3.7, nt
> N#Cc1cc2c(cc1C#N)N(Cc1ccccc1)CCN2Cc1ccccc1
    1.4, nt
> O=C(CCC(C(=O)O)N1C(=O)c2ccccc2C1=O)Nc1ccc2c(c1)COCO2 (stereo unspecified)
    -6.5, 0.3
> COc1ccc(-c2cc(C(=O)N3CCN(C(c4ccccc4)c4ccccc4)CC3)no2)cc1
    4.8, nt
> Cc1ccc(S(=O)(=O)Nc2cccc3c2O[C@H](CN(C)Cc2ccc(-c4ccccc4)cc2)[C@@H](C)CN([C@@H](C)CO)C3=O)cc1
    -3.0, nt
> C[C@@H]1CN([C@H](C)CO)C(=O)c2cc(NC(=O)Nc3ccc4c(c3)OCO4)ccc2O[C@H]1CN(C)C(=O)Nc1ccccc1
    1.4, 0.1
> O=c1c(C=NCCc2ccccc2)c(NCCc2ccccc2)nc2ccccn12
    -0.8, nt
> CNC[C@@H]1Oc2ccc(NC(=O)Nc3ccc(OC)cc3)cc2C(=O)N([C@H](C)CO)C[C@@H]1C
    -0.9, 1.6
> CCc1ccc2nc(Nc3nc4ccccc4c(=O)[nH]3)nc(C)c2c1
    87*, -3.8
> N#Cc1cc2c(=O)n3ccccc3nc2n(CCc2ccccc2)c1=O
    -7.5, -1.1
> C[C@@H]1CN([C@@H](C)CO)C(=O)c2cc(NC(=O)CCN3CCOCC3)ccc2O[C@H]1CN(C)Cc1ccc(C(F)(F)F)cc1
    0.5, 0.2
> COC(=O)/C=c1/sc2n(c1=O)C(C)=CC(C)(C)N=2
    -13, 0.2
> O=C(/C=C/N1CCOCC1)c1csc(-c2ccc(C(F)(F)F)cc2)n1
    2.1, -0.8
> C[C@@H]1CN([C@H](C)CO)C(=O)c2cc(NC(=O)NC3CCCCC3)ccc2O[C@@H]1CN(C)Cc1ccc(Cl)c(Cl)c1
    -5.1, 0.5
> Cc1ccc(C(=O)CSc2nc(C)cc(C)c2C(N)=O)cc1
    1.1, -1.2
> S=C(NCc1ccccc1Cl)NC12CC3CC(CC(C3)C1)C2
    -1.7, 1.1
> Cc1ccc(-c2nc(-c3ccccc3)no2)cc1
    9.7, -5.9
> CNC[C@@H]1Oc2ccc(NC(=O)C3CC3)cc2C(=O)N([C@H](C)CO)C[C@H]1C
    -0.8, -0.2
> CCOC(=O)c1cnn(C(=O)c2c(C)nc3ccccn23)c1N
    19, -0.7
> Cc1cc(C(=O)Sc2cccc(Br)c2)nn1C(C)(C)C
    -0.7, -1.1
> COc1ccc(CN(C)C[C@@H]2Oc3ccc(NS(=O)(=O)c4ccccc4)cc3C(=O)N([C@H](C)CO)C[C@@H]2C)cc1
    12, -0.8
> S=C(NCc1cccs1)Nc1ccccc1
    5.3, 0.1
> C[C@H]1CN([C@@H](C)CO)C(=O)c2cccc(NS(=O)(=O)c3ccccc3)c2O[C@@H]1CN(C)CC1CC1
    4.4, nt
> O=c1c2ccccc2n2c(-c3ccsc3)nnc2n1Cc1ccccc1
    1.7, -1.0
> C[C@H]1CN([C@@H](C)CO)C(=O)c2cccc(NC(=O)Nc3ccc(F)cc3)c2O[C@H]1CN(C)S(=O)(=O)c1cccs1
    -7.1, nt
> C[C@H](CO)N1C[C@H](C)[C@H](CN(C)Cc2ccc(Cl)c(Cl)c2)Oc2ccc(NC(=O)Cc3ccccc3)cc2C1=O
    -0.4, 0.0
> C[C@H](CO)N1C[C@H](C)[C@H](CN(C)Cc2ccc(C(F)(F)F)cc2)Oc2ccc(NC(=O)Nc3ccccc3)cc2C1=O
    0.8, -1.2
> Cn1c(=O)c2c(nc(CN3CCN(c4ccccc4)CC3)n2Cc2c(F)cccc2Cl)n(C)c1=O
    2.6, nt
> Cc1ccc2c(c1)c1c3n2CCNC3CCC1 (stereo unspecified)
    -2.2, -0.2
> O=C1CCCCC1Sc1nc2ccccc2s1 (stereo unspecified)
    2.2, -2.5
> COC(=O)c1cccc(OC(C)C(=O)O)c1 (stereo unspecified)
    -4.6, -0.4

Some of the entries above in another layout:
Compound | BJeLR viab HTS | A1 inhib
COC(=O)c1cccc(OC(C)C(=O)O)c1 (stereo unspecified) | -4.6 | -0.4
C[C@H]1CN([C@@H](C)CO)C(=O)c2cccc(NS(=O)(=O)c3ccccc3)c2O[C@@H]1CN(C)CC1CC1 | 4.4 | nt
CNC[C@@H]1Oc2ccc(NC(=O)C3CC3)cc2C(=O)N([C@H](C)CO)C[C@H]1C | -0.8 | -0.2
Cc1ccc2c(c1)c1c3n2CCNC3CCC1 (stereo unspecified) | -2.2 | -0.2

Carrying on.
Every second line gives: BJeLR viab HTS, A1 inhib
> Cc1cc(C(=O)Nc2cccc3c2O[C@H](CN(C)Cc2ccc(Cl)c(Cl)c2)[C@@H](C)CN([C@H](C)CO)C3=O)n(C)n1
    -0.3, nt
> COc1cc(/C(C)=C/C(C)(O)C(C)O)oc(=O)c1C (stereo unspecified)
    -4.8, 0.6
> C[C@H]1CN([C@@H](C)CO)C(=O)c2cccc(NS(=O)(=O)c3cccs3)c2O[C@@H]1CN(C)Cc1ccc(-c2ccccc2)cc1
    -4.6, nt
> C[C@@H]1CN([C@@H](C)CO)C(=O)c2cc(NS(=O)(=O)c3cn(C)cn3)ccc2O[C@@H]1CN(C)C(=O)Nc1ccccc1
    -0.9, -0.7
> O=c1c2sc3ccccc3c2[nH]c(=S)n1CCCN1CCN(c2ccccc2F)CC1
    0.8, 1.2
> CS(=O)(=NS(=O)(=O)c1cccc2nsnc12)c1ccc(Cl)cc1 (stereo unspecified)
    -1.7, 0.7
> COc1ccc(-c2c(C(F)(F)F)oc3c(CN4CCCC(C)C4)c(O)ccc3c2=O)cc1OC (stereo unspecified)
    7.6, 1.6
> Cc1noc(C)c1NC(=O)Nc1ccc2c(c1)C(=O)N([C@H](C)CO)C[C@H](C)[C@H](CN(C)Cc1ccc3c(c1)OCO3)O2
    4.2, -0.3
> C[C@@H]1CN([C@@H](C)CO)C(=O)c2cc(NC(=O)CCN3CCOCC3)ccc2O[C@H]1CN(C)C(=O)Nc1ccc(C(F)(F)F)cc1
    0.3, 0.7
> CC(C)(C)c1ccc(NC(=O)N2CCOCC2)cc1
    0.4, nt
> COC(=O)c1oc2c(c1C)-c1nc3ccccc3nc1C(C)(C)C2
    -1.8, -0.2
> C[C@@H]1CN([C@@H](C)CO)C(=O)c2cccc(NS(=O)(=O)c3ccc(Cl)cc3)c2O[C@@H]1CN(C)S(=O)(=O)c1ccccc1
    1.2, nt
> CCN(CC)CCC(=O)N1N=C(c2ccc(C)cc2)CC1c1ccc(OC)cc1 (stereo unspecified)
    1.3, -0.5
> Cc1noc(C)c1NC(=O)N(C)C[C@@H]1Oc2ccc(NC(=O)c3ccncc3)cc2C(=O)N([C@@H](C)CO)C[C@H]1C
    3.7, 0.2
> O=C(NCCN1CCNC1=O)c1sc2ccccc2c1Cl
    3.7, 0.2
> CNC[C@H]1Oc2c(NC(=O)c3cnccn3)cccc2C(=O)N([C@H](C)CO)C[C@@H]1C
    11, nt
> C[C@H]1CN([C@@H](C)CO)C(=O)c2cc(NC(=O)C3CCCCC3)ccc2O[C@@H]1CN(C)C(=O)NC1CCCCC1
    0.3, -0.3
> O=C1CC(SCc2ccc(Cl)cc2)C(=O)N1c1ccc(Br)cc1 (stereo unspecified)
    1.9, -0.2
> COc1ccc(NC(=O)N(C)C[C@H]2Oc3ccc(NC(=O)NC4CCCCC4)cc3C(=O)N([C@H](C)CO)C[C@@H]2C)cc1
    -0.9, -0.8
> c1ccc(CSc2nccc(-c3ccc4c(c3)CCO4)n2)cc1
    1.8, 0.6
> CC(=O)N1CCN(C2c3cccc4cccc(c34)C2NS(=O)(=O)c2ccc(Cl)cc2)CC1 (stereo unspecified)
    1.9, 0.3
> O=C(Oc1cccc(OC(=O)c2ccccc2F)c1)c1ccccc1F
    0.2, -0.6
> Cc1cc(C)cc(NC(=O)CC(NCc2cccnc2)C(=O)O)c1 (stereo unspecified)
    -6.0, 0.4
> C[C@@H]1CN([C@H](C)CO)C(=O)c2cc(NC(=O)c3ccncc3)ccc2O[C@H]1CN(C)S(=O)(=O)c1ccc(Cl)cc1
    0.5, 0.5
> C[C@H](CO)N1C[C@H](C)[C@@H](CN(C)S(=O)(=O)c2cn(C)cn2)Oc2c(NC(=O)Nc3ccccc3)cccc2C1=O
    -1.5, nt
> C[C@@H]1CN([C@H](C)CO)C(=O)c2cc(NS(C)(=O)=O)ccc2O[C@H]1CN(C)S(=O)(=O)c1cn(C)cn1
    -6.8, 0.4
> N=C(N)c1cc(C(F)(F)F)cc(C(F)(F)F)c1
    3.9, -0.7
> C[C@H]1CN([C@@H](C)CO)C(=O)c2cccc(NC(=O)c3cnccn3)c2O[C@@H]1CN(C)C(=O)Nc1ccc2c(c1)OCO2
    0.1, nt
> O=C(Cn1cc2c(n1)CCCC2)NCCCN1CCCCC1
    2.6, -0.2
> Cc1cc(NC(=O)C2C(=O)c3ccccc3S(=O)(=O)N2C)no1 (stereo unspecified)
    1.6, 0.4
> CN1C(=O)/C(=C/c2ccc(Cl)cc2)N(C)C1=S
    6.6, -1.1
> C[C@H]1CN([C@@H](C)CO)C(=O)c2cc(NC(=O)Cc3ccccc3)ccc2O[C@@H]1CN(C)Cc1ccc(C(F)(F)F)cc1
    -2.1, -1.0
> CC(C)CN(CC(C)C)c1nnc(NC(=O)c2csc3c2CCCC3)s1
    1.3, 0.2
> Cc1cc2cc(CNC(=O)/C=C\c3ccc4c(c3)OCO4)ccc2n1C
    -1.1, nt
> COc1ccc(S(=O)(=O)N(C)C[C@H]2Oc3c(NS(=O)(=O)c4cn(C)cn4)cccc3C(=O)N([C@@H](C)CO)C[C@@H]2C)cc1
    -2.7, nt
> COc1ccc(NC(=O)Nc2cccc3c2O[C@@H](CN(C)S(=O)(=O)c2ccc(Cl)cc2)[C@H](C)CN([C@H](C)CO)C3=O)cc1
    -3.7, nt
> C[C@H](CO)N1C[C@H](C)[C@@H](CN(C)Cc2ccncc2)Oc2ccc(NC(=O)Cc3ccccc3)cc2C1=O
    -1.5, -0.6
> O=C(Nc1cccc(-c2nc3ccccc3o2)c1)c1cccc(OCc2ccccc2)c1
    11, 34*
> Cc1noc(C)c1NC(=O)Nc1ccc2c(c1)C(=O)N([C@@H](C)CO)C[C@H](C)[C@H](CN(C)C(=O)NC1CCCCC1)O2
    3.2, -0.1
> CNC[C@H]1Oc2ccc(NC(=O)Nc3ccc(C(F)(F)F)cc3)cc2C(=O)N([C@@H](C)CO)C[C@H]1C
    -5.4, 0.5

Entries above with bromine (2):
Every second line gives: BJeLR viab HTS, A1 inhib
> Cc1cc(C(=O)Sc2cccc(Br)c2)nn1C(C)(C)C
    -0.7, -1.1
> O=C1CC(SCc2ccc(Cl)cc2)C(=O)N1c1ccc(Br)cc1 (stereo unspecified)
    1.9, -0.2

(list continues)
Every second line gives: BJeLR viab HTS, A1 inhib
> CN(C)c1ccc(C(O)C(=O)c2ccccc2)cc1 (stereo unspecified)
    3.6, 0.4
> CC1=C(CO)C(=O)OC([C@@H](C)C2CC[C@H]3C4C[C@H]5O[C@]56[C@@H](O)C=CC(=O)[C@]6(C)C4CC[C@]23C)C1 (stereo partly specified)
    9.0, 1.8
> O=C(O)c1c2c(nc3ccccc13)CCN(S(=O)(=O)c1ccc(Cl)cc1)C2
    1.2, 0.0
> C[C@@H]1CN([C@H](C)CO)C(=O)c2cc(NC(=O)c3ccncc3)ccc2O[C@H]1CN(C)Cc1ccc2c(c1)OCO2
    0.4, 0.8
> COc1ccc(C2=NN(C(=O)c3cccs3)C(c3cc4ccccc4nc3Cl)C2)cc1 (stereo unspecified)
    0.2, 0.8
> COc1ccc(CNC(=O)c2cc3c(=O)oc4ccccc4c3s2)cc1
    4.5, nt
> C[C@@H]1CN([C@@H](C)CO)C(=O)c2cccc(NC(=O)C3CC3)c2O[C@@H]1CN(C)S(=O)(=O)c1ccccc1
    5.2, nt

Bioassay records as filed in PubChem.
